Rango complex inh – prevents formation of the Rango-importin beta complex. Q14974. Rango CFP/YFP FRET sensor + importin beta, 45 min. Potency, µM (titrated, usually from 92.2 µM), for the others: at the top dose inhibition of complex formation. 340,000 compounds, 0.031% hits; active = rising FRET ratio curve, often small or poorly fitted; inconclusive = mostly compound fluorescence or quenching in the first reads; inactive = flat curves in all reads;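 further: potency means the concentration at half of the fitted maximal effect; 0% = DMSO wells and 100% = buffer wells lacking importin beta; nearly all actives have a fitted effect of over 15% in size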
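FRET biosensor Rango (snurportin 1 IBB between N-terminal EYFP and C-terminal Cerulean), 50 nM in PBS/1 mM DTT/0.02% Tween-20/0.1% BSA, preincubated 5 min RT with compound; 0.125 microM importin beta added, 45 min RT, CFP/YFP FRET ratio read.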
GLA inh pH 4.5 – alpha-galactosidase A (human) inhibition, pH 4.5; 230,000 tested, under 10 active; activity change, negative = inhibition, % at 105 µM; purified enzyme, 4-MU-alpha-Gal fluorescence, pH 4.5; P06280; inconclusive = small, poorly fitted or top-dose-only inhibition, or a rising curve; inactive = flat fitted curve, though single readings scatter; no compound was filed as active;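 further: 0% = full activity with enzyme and -100% = basal without enzyme; dose as in the result columns while the protocol names 77 µM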
Target sequence (P06280 whole entry, looked up): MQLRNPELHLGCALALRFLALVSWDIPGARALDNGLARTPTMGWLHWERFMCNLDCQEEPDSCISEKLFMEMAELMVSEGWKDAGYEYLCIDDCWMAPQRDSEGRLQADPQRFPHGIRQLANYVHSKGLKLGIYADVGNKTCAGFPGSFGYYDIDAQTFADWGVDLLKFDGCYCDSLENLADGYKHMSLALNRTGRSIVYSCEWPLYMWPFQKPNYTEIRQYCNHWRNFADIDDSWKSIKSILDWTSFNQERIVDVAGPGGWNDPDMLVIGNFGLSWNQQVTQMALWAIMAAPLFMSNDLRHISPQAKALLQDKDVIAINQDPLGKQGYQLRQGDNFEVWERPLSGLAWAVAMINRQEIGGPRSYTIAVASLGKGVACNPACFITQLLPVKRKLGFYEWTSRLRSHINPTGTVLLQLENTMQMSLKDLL
Rango dissoc inh – prevents RanGTP from dissociating the Rango-importin beta complex; O95149+P62826; Biochemical FRET Rango-importin beta, RanGTP-induced dissociation; Potency, µM (top dose mostly 46.1 µM), inactives show at the top dose activity change, negative = inhibition; 340,000 compounds, 0.071% hits; AID 540253; active means falling FRET ratio curve, often poorly fitted, with flat reads before Ran was added; inconclusive means other falling curves, or compound fluorescence or quenching; inactive means flat or rising ratio curve;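 further: potency means the concentration at half of the fitted maximal effect; % of control where 0% means no effect; nearly all actives have a fitted effect of over 45% in size; -100% = wells without RanGTP and RCC1; the record marks most hits as doubtful in a second field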
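Compounds sat 5 min at room temperature with 0.1 uM Rango biosensor plus 0.25 uM importin beta, then FRET pre-read. RanGTP-RCC1 (0.6 uM Ran, 2mM GTP, 0.2 uM RCC1) added for 45 min, and the CFP/YFP post-read measured blocked complex dissociation.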
miR-21 FLuc – raises the signal of a miR-21 reporter | Potency, µM (highest dose often 38.3 µM), inactives show at the top dose reporter change, positive = more light | 340,000 tested, under 10 active | HeLa miR-21 FLuc reporter, luciferase, 48 h; active = well fitted rising curve with a large enough effect; inconclusive = small, poorly fitted or top-dose-only effect; inactive = no such curve, though single readings can be large or run the other way;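 further: % of control where 0% means no effect; miR-21 action dims this reporter so a rising signal means less miR-21 action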
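HeLa miR-21-FLuc reporter line, endogenous miR-21; 2000 cells/well in DMEM/10% FBS; compound titration up to ~40uM final, 48 h, 37 degree Celsius; luciferase detection reagent, 15 min lysis, CCD luminescence.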
* marks the source's active call; other numbers are inactive results; u = inconclusive; x = not tested or not shown; & = joins results of further samples; [ ] = remark or other dose. This is a subset, so the mix of outcomes need not match the whole.

SMILES	Rango complex inh	GLA inh pH 4.5	Rango dissoc inh	miR-21 FLuc
Cc1cccc(CS(=O)(=O)Cc2ccc(C(=O)NC3CCCC3)o2)c1	1.5%	x	1%	-2%
Cc1cccc(C(=O)OCC(=O)NCc2cccs2)c1	0.3%	6	4%	-1%
Cc1ccc(C(=O)NNC(=O)c2ccc(NS(=O)(=O)c3cccs3)cc2)o1	-1.2%	x	-21%	x
Cc1cccc(NC(=S)N(Cc2cccc(Br)c2)CC2CCC(C(=O)O)CC2)c1 (centres undefined)	-0.9%	-6[21.1 µM]	-11%	3%
c1ccc(-c2nc(N3CCOCC3)cc(N3CCOCC3)n2)cc1	-1.5%	-23	-6%	-2%
Cc1ccc(-c2[nH]nc3c2C(c2ccoc2)C(C#N)=C(N)O3)cc1C (centres undefined)	-1.6%	-16	-8%	0%
Cc1cccc(NC(=O)c2cccnc2)c1C	-4.6%	x	-3%	-3%
CCn1nnc(NC(=O)C(c2ccccc2)c2ccccc2)n1	2.2%	-25	2%	0%
COc1ccc(/C=C/c2cccc[n+]2C)c(O)c1	-0.2%	x	u	8%
CCOC(=O)CSc1cc(=O)n(CC)c2ccccc12	0.7%	0	0%	-4%
Cc1ccc(C(=O)NC(CCc2ccccc2)C(=O)O)cc1 (centres undefined)	1.1%	x	15%	x
O=C(Nc1ccc(N2CCN(c3ccc(C(F)(F)F)cn3)CC2)nc1)c1cccs1	-0.9%	-15	-6%	-3%

Compound profiles, from the list above. Order of values: Rango complex inh	GLA inh pH 4.5	Rango dissoc inh	miR-21 FLuc
Shown for Cc1cccc(CS(=O)(=O)Cc2ccc(C(=O)NC3CCCC3)o2)c1 = 1.5%	x	1%	-2%
Shown for Cc1ccc(C(=O)NNC(=O)c2ccc(NS(=O)(=O)c3cccs3)cc2)o1 = -1.2%	x	-21%	x
Shown for O=C(Nc1ccc(N2CCN(c3ccc(C(F)(F)F)cn3)CC2)nc1)c1cccs1 = -0.9%	-15	-6%	-3%
Shown for c1ccc(-c2nc(N3CCOCC3)cc(N3CCOCC3)n2)cc1 = -1.5%	-23	-6%	-2%

Compounds shown so far that contain a furan ring, fused or not:
SMILES	Rango complex inh	GLA inh pH 4.5	Rango dissoc inh	miR-21 FLuc
Cc1cccc(CS(=O)(=O)Cc2ccc(C(=O)NC3CCCC3)o2)c1	1.5%	x	1%	-2%
Cc1ccc(C(=O)NNC(=O)c2ccc(NS(=O)(=O)c3cccs3)cc2)o1	-1.2%	x	-21%	x
Cc1ccc(-c2[nH]nc3c2C(c2ccoc2)C(C#N)=C(N)O3)cc1C (centres undefined)	-1.6%	-16	-8%	0%

More results:
SMILES	Rango complex inh	GLA inh pH 4.5	Rango dissoc inh	miR-21 FLuc
Cc1ccc(CNC(=O)Cc2cccs2)cc1	0.2%	-12	8%	-39%
CCOC(=O)N1CCN(C(=O)/C=C/c2ccc(OC)c(OC)c2)CC1	-0.8%	x	6%	-3%
CCOC(=O)N1CCN(c2cc(C)c([N+](=O)[O-])cc2F)CC1	-0.9%	-4	15%	1%
CCC(CC)C(=O)Nc1nnc(S(=O)(=O)N2c3ccccc3CC2C)s1 (centres undefined)	-3.2%	x	-23%	16%&-65%
O=C(Nc1cccc(Cl)c1)N1N=CCC1c1ccccc1 (centres undefined)	0.7%	0	-7%	-16%
Cn1ncc(C#N)c1NC(=O)C1CC(c2c(F)cccc2Cl)=NO1 (centres undefined)	-1.0%	0	-19%	1%
CCCC(=O)Nc1nn(C)c2nc3ccc(C)cc3cc12	u	x	u	5%
COC(=O)c1c(NC(=O)C2Cc3ccccc3C(=O)O2)sc2c1CCCC2 (centres undefined)	4.7%	-1	17%	-3%
CCCCn1c(=O)[nH]c(=O)c2c1nc(-c1ccc3ccccc3c1)n2CC	4.7%	3	2%	-8%
O=C1Nc2ccccc2/C1=C/c1ccccc1Cl	-0.2%	x	22%	0%
COc1cccc(NC(=O)C2CCN(c3cnccn3)CC2)c1	1.7%	x	-10%	-3%
COc1ccc(S(=O)(=O)N2CCCC2C(=O)Nc2ccc(C)cc2)cc1 (centres undefined)	0.5%	0	-16%	-2%
c1cncc(-c2nnc(-c3cccs3)o2)c1	-0.2%	-4	3%	-32%
Cn1c(=O)c2c(nc(N3CCc4ccccc4C3)n2Cc2ccc(Br)cc2)n(C)c1=O	2.6%	-2	-5%	0%
CC(=O)c1cc(C#N)c(SCC(=O)Nc2nccs2)nc1C	u	-9	-23%	-49%
O=S1(=O)C[C@@H](O)[C@@H](Nc2ccc(Cl)cc2)C1	-1.1%	-5	2%	1%
COc1ccc(CCC2CCNCC2)cc1	1.2%	x	0%	-6%
COc1cc(OC)c2ccc(=O)oc2c1C(CC(=O)N1CCOCC1)c1ccc(N(C)C)cc1 (centres undefined)	-0.3%	-1	2%	-2%
O=C(O)Cc1sc(Nc2cccc3ccccc23)nc1-c1ccc(F)cc1	0.0%	x	3%	-12%
CN(Cc1ccccc1)C(=O)CSc1nc2ccccc2c(=O)n1Cc1ccco1	-3.9%	-7	1%	17%
CCOC(=O)C1=C(C)NC(=O)NC1c1ccccc1Cl (centres undefined)	1.2%	3	-11%	3%
COc1ccccc1/C=C/CN1CCOCC1	1.5%	-3	-1%	-6%
N/C(=N\OC(=O)c1cccc(F)c1)c1ccccc1	0.3%	4	-6%	-50%
Cc1cc(Cl)c(OCCCSc2nc(C)cc(=O)[nH]2)c(Br)c1	0.0%	6	-7%	-3%
COc1ccc(S(=O)(=O)N2CCN(Cc3ccc(OC)c(OC)c3)CC2)cc1	-2.8%	x	34%	1%
COc1ccc(CCNc2cc(C)nc3c(-c4ccccc4OC)cnn23)cc1OC	-2.0%	x	-10%	7%
CCCCCCn1nc(C(=O)N(CCOC)c2c(N)n(CCCC)c(=O)[nH]c2=O)c2ccccc2c1=O	-4.2%	x	-6%	x
O=C(O)c1cccc(Nc2ccc3nonc3c2[N+](=O)[O-])c1	5.0%	x	-9%	-2%
Fc1ccc(OCc2nnc(SCCN3CCOCC3)o2)cc1	u	0	0%	-18%
CN(Cc1ccco1)C(=O)c1ccc(CNS(=O)(=O)c2ccc3c(c2)C(C)(C)C(=O)N3C)cc1	-3.3%	x	-7%	7%
S=C(NCCC1=CCCCC1)NCc1ccco1	3.2%	8	2%	-24%
CCOc1ccc(CCN2CN(C3CCCCC3)CNC2=S)cc1OCC	0.3%	-4	24%	7%
Cc1cc(C(=O)OCC(=O)Nc2ccccc2C(F)(F)F)on1	u	x	-5%	x
Cn1cc(Br)c(C(=O)NNC(=O)Cc2ccc(Cl)cc2)n1	-1.2%	x	2%	-4%
O=C(NNC(=O)c1ccc([N+](=O)[O-])cc1)c1ccncc1	3.8%	-13	2%	-8%
Cc1cc([N+](=O)[O-])c(C)cc1-c1ccc(/C=N/NC(=O)c2cccnc2)o1	-1.6%	-3	45%	-8%
CCn1c(SC(C)C(=O)NCC2CCCO2)nc2ccccc21 (centres undefined)	2.5%	x	26%	x
CC1CCN(c2ccc([N+](=O)[O-])cc2C(=O)N2CCOCC2)CC1	2.6%	x	0%	3%
COc1ccccc1-c1nnc(SCC(=O)O)n1-c1ccc(C)cc1	0.9%	13	9%	1%
O=C(Nc1ccc(N2CCN(C(=O)c3cccs3)CC2)c(Cl)c1)c1ccco1	6.8%	-4	u	11%
COc1cc(C(=O)Nc2c(C(=O)N3CCOCC3)oc3ccccc23)cc(OC)c1OC	-1.2%	x	13%	1%
CCOc1ccccc1NC(=O)Cc1coc2ccc(C)cc12	0.1%	1	-12%	-12%
CCCCC(=O)N=c1sc2cc(S(C)(=O)=O)ccc2n1C	-3.2%	-12	-1%	-10%
COc1ccc(N(C)C(=O)c2onc3c2CCCC3)cc1	0.6%	-7	19%	-11%
COc1ccccc1CN1CCN(C(=O)c2ccncc2)CC1	0.2%	2	3%	-1%
c1cc2c(nn1)CCc1nonc1-2	0.1%	-9	6%	-4%
COc1ccc(NC(=O)N(C)C[C@H]2Oc3c(NC(=O)Nc4ccccc4)cccc3C(=O)N([C@H](C)CO)C[C@@H]2C)cc1	-6.1%	x	-16%	x
COc1cccc(CNc2nc3nc(C)cc(=O)n3[nH]2)c1	-0.2%	2	-12%	-1%
COc1ccc(S(=O)(=O)N2CCN(CC(=O)Nc3ccccc3Cl)CC2)cc1	0.3%	x	24%	-7%
CCOC(=O)N1CCN(S(=O)(=O)CCNC(=O)c2ccc(OC)cc2)CC1	0.0%	x	34%	x
CCOC(=O)c1c(C)n(C)c2c(C)cc(O)c(OC(C)=O)c12	7.7%	2	10%	-3%
CCOC(=O)c1cnc(SCC)[nH]c1=O	-4.1%	3&-1	5%	0%&-1%
Cn1c(=O)c(=O)n(C)c2cc(S(=O)(=O)N3CCOCC3)ccc21	-1.1%	-8	-4%	-1%
COc1ccc(Cl)cc1C(=O)NNC(=O)CSc1nnc2ccccn12	-3.3%	8	-2%	6%
CC(C)Cn1c(N)c(C(=O)CSc2ccc3c(c2)OCCO3)c(=O)n(C)c1=O	1.8%	-22	-9%	21%
Cc1ccc(-n2c(SCC(=O)Nc3ccc(N4CCOCC4)cc3)nc3ccccc3c2=O)cc1	0.3%	10	-14%	-5%
COc1cc(OC)c2c(-c3ccccc3)cc(=O)oc2c1C(CCN1CCCCC1)c1ccc2c(c1)OCO2 (centres undefined)	4.7%	-24	22%	24%
CC(C)OC(=O)/C(=C/c1ccco1)c1ccccc1	3.5%	3	12%	-9%
O=C1C=CN2CCCCC2CC1 (centres undefined)	u	x	u	x
COc1cccc(NC(=O)CSc2nc3ccsc3c(=O)n2-c2ccc(C(=O)O)cc2)c1	-1.9%	-13	-18%	-6%

Continuation.
SMILES	Rango complex inh	GLA inh pH 4.5	Rango dissoc inh	miR-21 FLuc
O=C(COC(=O)CCSc1ccc(Cl)cc1)NCc1ccco1	-6.3%	-5	22%	-4%
Cc1cc(O)c2c(CN3CCN(Cc4ccccc4)CC3)cc(=O)oc2c1	-0.9%	x	-8%	6%
COc1ccc(NS(=O)(=O)c2ccc3nc(COc4ccc5ccccc5c4)[nH]c3c2)cc1	-3.6%	3	-7%	30%
S=c1[nH]cnc2sc(Nc3ccccc3)nc12	-1.1%	2	-6%	-45%
CCOC(=O)c1sc(NC(=O)C(CC)Sc2nnc3c4ccccc4n(C(C)C)c3n2)nc1C (centres undefined)	2.7%	4	8%	0%
C[C@H](O)[C@@H]1C(=O)N2CCc3ccc(N4CCN(C)CC4)cc3[C@@H]2C[C@@H]1N(C)C(=O)NC1CCCCC1	-0.3%	x	19%	x
C=CCNC(=S)NN=C1CCCCCCC1	0.0%	-2	-3%	0%
Cc1ccc(OCCC(=O)Nc2ccc(F)c(F)c2)cc1	6.9%	-4	-8%	-2%
CCCCCCOc1ccc(/C(N)=N/O)cc1	-0.7%	6	-3%	-54%
Cc1nn(C)c(C(=O)NNC(=S)NC2CCCCC2)c1Br	1.9%	2	14%	-56%
NC(=O)c1ccccc1NC(=O)CS(=O)(=O)Cc1ccccc1	0.4%	3	0%	3%
CCC1(C)NC(=O)N(CC(=O)Nc2sc3c(c2C(=O)OC)CCCCC3)C1=O (centres undefined)	0.8%	5	-14%	-10%
COc1ccc(CN2CCN(Cc3cccc4nonc34)CC2CCO)c(C)c1C (centres undefined)	-5.0%	-2	-2%	8%
O=C(NCCCSc1ccccc1)c1cc(Br)ccc1O	0.1%	x	22%	-6%
COC(=O)[C@]1(Cc2ccccc2)N[C@H](c2ccc(-c3cccc(Cl)c3)c(OC)c2)[C@@H]2C(=O)N(C)C(=O)[C@@H]21	-2.2%	x	11%	x
COCCNC(=O)CSc1nc2ccccc2c(=O)n1CCC(=O)NCCc1ccc(OC)c(OC)c1	-2.2%	2	0%	-5%
CCOC(=O)c1sc(NC(=O)c2ccccc2)cc1C	-0.2%	7	-9%	-60%
CCN(CC)CCCOC(=O)c1ccc(OC)cc1O	-0.1%	7	-5%	-2%
CC1(C)CC2C1CCC1(O)CC2(C)CCC1N(O)c1ccc(C(=O)NCCO)cn1 (centres undefined)	-2.8%	x	-2%	x
CCOc1cc(/C=C/C(=O)O)ccc1OCCOc1ccccc1	0.6%	x	-5%	-22%
CC(C)N(Cc1nc(-c2ccc(Cl)cc2)no1)C(=O)C(c1ccccc1)c1ccccc1	1.4%	1	0%	-4%
O=C(Nc1nc(-c2cc(Cl)sc2Cl)cs1)c1cccs1	0.0%	-14	-10%	-22%
